Vaccinia mCherry: vaccinia inhibition (mCherry reporter) | Vaccinia virus mCherry reporter infection, fluorescence; about a quarter of the inactives have no number | Potency, µM (series often up to 36.5 µM), for the others: at the top dose activity change, negative = inhibition, usual class: inhibitors | 310,000 compounds, 0.63% hits; active = well fitted inhibition curve with a large enough effect; inconclusive = small, poorly fitted or top-dose-only effect; inactive = no such curve, though single readings can be large or run the other way; tested in A549 cells; also: nearly all actives have a fitted effect of over 35% in size; inactives centre near -10
VACV Venus inh: vaccinia inhibition (Venus reporter). Vaccinia virus Venus reporter expression, fluorescence. Potency, µM (doses to about 36.5 µM), inactives show top-dose activity change, negative = inhibition, actives largely listed as inhibitors. 330,000 compounds, 0.46% hits. AID 720580; active means well fitted inhibition curve with a large enough effect; inconclusive means small, poorly fitted or top-dose-only effect; inactive means no such curve, though single readings can be large or run the other way; tested in A549 cells; also: nearly all actives have a fitted effect of over 30% in size; inactives centre near -10
Starred values were filed as active, the others as inactive; i = inactive; u = inconclusive; x = not tested or not shown; & = joins results of further samples; [ ] = remark or other dose. % is scaled to controls: 0 for no effect and ±100 for the full control effect; potency is read from the fitted curve at half-maximal effect. The order is random; overall some 0.86% were active at least once.

Every second line gives: Vaccinia mCherry, VACV Venus inh
- COC(=O)CN(c1ccccc1)S(=O)(=O)c1ccc(F)cc1
  -15%, -2%
- Cc1ccc(C)c(N(C(=O)c2nsc(Cl)c2Cl)C(C(=O)NC2CCCC2)c2ccc(O)cc2)c1 (stereo not drawn)
  u, u
- C(=C\c1cccc2ccccc12)/c1nnc(-c2cccs2)o1
  u, -5%
- COc1ccc2c(c1)c(=O)c(S(=O)(=O)c1ccc(Cl)cc1)cn2Cc1cc(C)ccc1C
  1%, -6%
- O=c1c2nnn(Cc3ccccc3)c2ncn1-c1ccccc1
  -9%, -3%
- O=C(OCC(=O)N1CCCC1=O)c1cc(S(=O)(=O)N2CCOCC2)ccc1Cl
  -1%, -12%
- COc1ccc(-c2nnc(SCC(=O)NCc3ccco3)o2)cc1
  -14%, -12%
- CSc1ccccc1NC(=O)CN(C)CC(=O)Nc1ccc(Cl)cc1F
  i, -21%
- CC(=O)N1CCN(S(=O)(=O)c2cccc(C(=O)NNC(=O)Cn3ccc(C(F)(F)F)n3)c2)CC1
  i, -3%
- Cc1ccc(S(=O)(=O)N(C)C)cc1NC(=O)COC(=O)Cc1ccccc1F
  -2%, 3%
- NC(=O)CCn1cnc2ccccc21
  i, -8%
- Cc1cccc(NC(=O)c2ccc(C(=O)Nc3cccc(C)c3)nc2)c1
  -5%, -7%
- Cc1cc(NC(=O)COC(=O)c2c(C)c(C)c(C)c(C)c2C)no1
  u, -27%
- N#Cc1c(C#N)c(SSc2c(C#N)c(C#N)c(N)n2-c2ccccc2)n(-c2ccccc2)c1N
  -11%, 0%
- Cc1c(Cl)cccc1NC(=O)COCc1cc(-c2ccc3c(c2)OCO3)on1
  -11%, -8%
- O=C(Cn1cnc2c(nc3n2CCCCC3)c1=O)Nc1ccc(F)c(Cl)c1
  -1%, -16%
- COC(=O)c1cccc(NC(=S)Nc2cccc(Cl)c2Cl)c1
  -23%, -9%
- C/C(=N\n1c(C)nc2ccccc2c1=O)c1ccc(C)o1
  -10%, -8%
- CCN(CC(=O)NC1CCS(=O)(=O)C1)c1nc(-c2ccccc2)nc2ccccc12 (stereo not drawn)
  -22%, -18%
- CCCC12CN3CCN(CC(C3)/C1=N\NC(=O)c1ccc(F)cc1)C2
  0%, -4%
- O=C(Nc1nc(-c2ccccc2)c(-c2ccccc2)s1)c1ccc(S(=O)(=O)N(CCCl)CCCl)cc1
  i, -11%
- COc1ccc(OCC(=O)NCCNC(=O)c2ccncc2)cc1
  i, -13%
- O=C(c1ccc(N2CN(C(=O)c3ccco3)c3nc4ccccc4nc32)cc1)N1CCOCC1
  u, u
- Cc1ccc(S(=O)(=O)N2[C@@H](c3ccccc3)C(C(=O)O)=CC[C@H]2c2cccc(Cl)c2)cc1
  -13%, -2%
- CC(SCc1ccccc1)C(=O)NN=C1CCN(C)CC1 (stereo not drawn)
  -13%, -7%
- Cc1ccc(Sc2c(C)nn(C(=O)c3ccc(Cl)cc3)c2C)cc1
  -7%, -6%
- CCOC(=O)C1(CCOc2ccccc2)CCN(C(=O)CCSC)CC1
  -13%, -2%
- CCOC(=O)NC(Nc1ncccn1)(C(F)(F)F)C(F)(F)F
  x, -12%
- COC(=O)c1ccccc1NC(=O)COC(=O)c1ccccc1N=Nc1ccc(N(C)C)cc1
  -9%, -25%
- CCOC(=O)N1CCN(S(=O)(=O)c2ccc(C)cc2)C1c1ccccc1 (stereo not drawn)
  -10%, 2%
- Cc1cccc(NC(=O)C2CCCN(S(=O)(=O)c3ccc4[nH]c(=O)ccc4c3)C2)n1 (stereo not drawn)
  -13%, -3%
- O=C(NC12CC3CC(CC(C3)C1)C2)c1ccc(-c2cccc(Cl)c2)o1
  -20%, -15%
- COCCNC(=O)c1c(CSc2ccccc2)noc1C(=O)NCc1ccccc1
  -8%, -15%
- O=C1CCSc2ccc(S(=O)(=O)Nc3ccc(Cl)c(C(F)(F)F)c3)cc2N1
  -4%, 0%
- CCOC(=O)Cc1cnc(NC(=O)CSc2nc(N)cc(N)n2)s1
  -2%, -6%
- COc1cc(C(=O)Nc2ccc3oc(-c4ccccc4)nc3c2)cc(OC)c1OC
  -11%, -6%
- O=c1c2ccccc2n(Cc2c(F)cccc2Cl)c(=O)n1Cc1ccccc1
  -13%, -12%
- O=C(O)c1ccc(NCc2cccs2)cc1
  i, -8%
- O=C(Cn1c(-c2cncs2)nc2ccccc21)NCCc1ccccc1
  10%, 0%
- S=C(NCCc1ccccc1)N/N=C/c1ccc(Cl)cc1
  -21%[7.34 µM], 0%[7.34 µM]
- OC1CCN(c2ncnc3nc[nH]c23)CC1
  18%, -6%
- COc1cc(NC(=O)CSc2nc3nc(C)c(Cc4ccccc4)c(C)n3n2)cc(OC)c1
  -10%, 0%
- COc1ccccc1/C=C/c1ccc2cccc(O)c2n1
  u, -12%
- O=C(O)c1cc(S(=O)(=O)N2CCN(C(c3ccccc3)c3ccccc3)CC2)ccc1Cl
  -11%, 0%
- Cc1cccc(OCC(=O)Nc2cccc(C(=O)OCc3cc(=O)n4nc(C(C)C)sc4n3)c2)c1
  -16%, -10%
- CCc1ccccc1NC(=O)Nc1cc(C(=O)NCc2ccc(OC)cc2)ccc1N1CCCC1
  u, u
- O=C(NCc1ccncc1)C(=O)N/N=C/c1cccnc1
  i, -3%
- Cc1nn(Cc2ccccc2)c(C)c1C(=O)NCC(c1cccs1)N1CCOCC1 (stereo not drawn)
  i, -14%
- CCC(=O)Nc1ccc(-c2nc(-c3ccccc3)n(CC(=O)N3CCCCC3)n2)cc1
  x, -15%
- CCOCCCNC(=O)C(NC(=O)CNC(=O)c1ccccc1)c1ccc(OC)cc1 (stereo not drawn)
  i, -1%

Following part.
Every second line gives: Vaccinia mCherry, VACV Venus inh
- O=C(CN(C(=O)CCC(=O)Nc1nccs1)c1ccc(F)cc1)NCCc1ccccc1
  -9%, -12%
- OC1CNc2c(ccc3ccccc23)C1 (stereo not drawn)
  -19%, -3%
- CC(=NCCCn1ccnc1)c1c(O)n(-c2ccccc2)c(=O)[nH]c1=O
  -14%, -6%
- Cc1cc(-c2nnco2)c(C)n1-c1ccccc1
  x, -14%
- Nc1nc(NC2CCCC2)cc(=O)[nH]1
  i, -13%
- Cc1cc2cc(CNC(=O)c3ccc4c(c3)OCO4)ccc2n1C
  0%, 4%
- O=C(c1ccccc1)c1cnc(-c2ccccc2)s1
  -2%, -2%
- CC(C)Cn1c(N)c(C(=O)COC(=O)C2CC(=O)N(Cc3ccccc3Cl)C2)c(=O)n(C)c1=O (stereo not drawn)
  -3%, -14%
- COCCN1C(=O)N[C@@H](c2cccc(F)c2)C(C(C)=O)=C1C
  -13%, -17%
- Cn1cc(-c2nc3ccccc3[nH]2)c2ccccc21
  u, -16%
- CCc1nc(N)c(C#N)c(-c2ccc(F)cc2)c1C
  -20%[1.46 µM], -15%
- O=C(Cc1ccccc1F)NCC(=O)Nc1ccccc1Br
  i, -8%
- O=C(CNC(=O)c1ccco1)Nc1ccc(F)c(Cl)c1
  i, 1%
- COc1ccc(-n2c(SCC(=O)Nc3nnc(C)s3)nc3c([nH]c4ccccc43)c2=O)cc1
  -3%, -18%
- O=C(NCCCCNC(=O)c1ccccc1Br)c1ccccc1Br
  i[7.34 µM], 2%[7.34 µM]
- O=C(CCCSc1nc(-c2ccco2)cc(C(F)(F)F)n1)NCc1cccs1
  x, u
- CCNc1nc(Oc2ccc(=O)n(C)n2)nc(N2CCOCC2)n1
  x, -10%
- COc1ccccc1NC(=O)Nc1ccc(Br)cn1
  x, -22%
- Cc1cccc(-c2nc3nc(C)cc(NC(C)c4ccccc4)n3n2)c1 (stereo not drawn)
  -2%, 42%[activator]
- CC(C)Cc1n[nH]c(=O)[nH]1
  -10%, -4%
- CSc1nc(N(C)NC(=O)c2ccc(F)cc2)c2ccccc2n1
  x, u
- COCCOc1ccc(C(F)(F)F)cc1NC(=O)CN1C(=O)NC2(CCc3ccccc32)C1=O (stereo not drawn)
  -30%, u
- O=C(NCCS(=O)(=O)NCCc1ccccc1)c1ccc2c(c1)OCO2
  -14%, -12%
- COc1ccccc1Oc1ccc2c(c1)C(=O)N(CC1CCCO1)C2=O (stereo not drawn)
  -11%, -15%
- O=c1cc(-c2ccccc2)nc2nc(-c3ccccc3)[nH]n12
  -10%, -1%
- O=C(Nc1ccc(Cl)cc1C(F)(F)F)c1ccccc1Cl
  i, -4%
- O=[N+]([O-])c1cc(-c2nc(-c3ccccc3)no2)ccc1NCC1CCCO1 (stereo not drawn)
  -9%, -10%
- CC(C)CN(CC(C)C)C1=N/C(=C\c2ccco2)C(=O)N1c1ccccc1
  x, 3%
- CCn1c(CNc2ccc(F)cc2)nnc1SCC(=O)Nc1ccc(OC)cc1OC
  -2%, -15%
- CCCCOC(=O)c1ccc(NC(=O)c2ccc3c(c2)CCN3S(=O)(=O)c2ccccc2)cc1
  -3%, -15%
- Cc1ccc(Cc2c(-c3ccc(F)cc3)nc3ccc(Br)cn23)cc1
  33%[activator], -6%
- Cc1csc(NC(=O)CSc2ccc(-c3ccc(F)cc3)nn2)n1
  3%, 11%
- CCOC(=O)c1[nH]c(C)c(CCC(=O)N2CCN(c3ccc(Cl)cc3)CC2)c1C
  -13%, -17%
- COc1ccc(N2CCN(S(=O)(=O)c3ccc(C4CCCCC4)cc3)CC2)cc1
  -1%, -5%
- COc1ccc(CCNC(=O)CN(c2ccc(OC)c(OC)c2)S(=O)(=O)c2ccc(C)cc2)cc1
  5%, 3%
- CCCCn1c(N)c(N(CCOC)C(=O)CSCc2ccc(Cl)c(Cl)c2)c(=O)[nH]c1=O
  u, -26%
- Cc1cccc(OCC(=O)Nc2ccc(N3CCN(S(C)(=O)=O)CC3)cc2)c1C
  -7%, -8%
- CSc1ccc(C#N)cc1NC(=O)c1cccc(Cl)c1
  x, 20%
- CCOc1ccccc1C(=O)Nc1ccc2nc(N(CC)CC)cc(C)c2c1
  -17%, -12%
- COc1ccc(/C(C)=N/NC(=O)c2ccncc2)cc1[N+](=O)[O-]
  -20%, -9%
- COc1cc2c(cc1CNC[C@H]1O[C@@H](n3cc(C)c(=O)[nH]c3=O)C[C@@H]1O)OCO2
  i, -7%
- O=S1(=O)CC(N2CCN(Cc3ccccc3F)CC2)CN1Cc1cn(Cc2ccc(F)cc2)nn1 (stereo not drawn)
  8%, 2%
- O=C(NNS(=O)(=O)c1ccccc1F)c1cc(-c2ccccc2)n[nH]1
  -14%, -12%
- N#Cc1cccnc1N1CCN(C(=O)c2cccs2)CC1
  i, -17%
- COc1ccccc1Cn1c(=O)c2ccccc2n2c(SCc3csc(C)n3)nnc12
  -7%, -18%
- Cc1ccc(CSCCNC(=O)CN2C(=O)c3ccccc3S2(=O)=O)cc1
  -7%, -16%
- O=C(CNC(=O)C1CCCCC1)NC1=NCCS1
  i, 3%
- Cc1cc(CNC(=O)COc2ccc(C)c(C)c2)c2ccccc2n1
  -12%, -12%
- COc1cc2c(cc1OC)C(CCc1ccccc1)=NCC2
  -3%, -21%
- COc1ccccc1N1CC(C(=O)Nc2nnc(SCC(=O)N3CCOCC3)s2)CC1=O (stereo not drawn)
  i, -9%

(continued)
Every second line gives: Vaccinia mCherry, VACV Venus inh
- Cc1ncsc1CCOC(=O)c1cccc([N+](=O)[O-])c1
  -11%&-15%, 0%&-8%
- CCn1c(C(C)NC(=O)c2cccc(C)c2)nc2ccccc21 (stereo not drawn)
  2%, 7%
- COC(=O)c1ccc(-c2cccc3c2OC(CNC(=O)c2ccc4c(c2)OCCO4)C3)nc1 (stereo not drawn)
  u, u
- CCOc1ccc(N=C2NC(=O)C(CC(=O)O)S2)cc1 (stereo not drawn)
  -10%, -4%
- O=C(C1CCN(C2CC(=O)N(c3ccc(Cl)cc3)C2=O)CC1)N1CCOCC1 (stereo not drawn)
  x, -6%
- C/C=C/c1ccc(OCCCNC2CCCC2)c(OC)c1
  u, -16%
- CN1CCN(c2ccc(C(=O)c3ccccc3)cc2[N+](=O)[O-])CC1
  i, -15%
- COC(=O)CCCC(=O)N1CCC(CCC(=O)NCc2ccc(F)cc2)CC1
  -11%, -15%
- COc1ccc(-c2cc(C(F)(F)F)n3nc(C(=O)Nc4ccc(Cl)cc4C(F)(F)F)cc3n2)cc1OC
  -11%, -2%
- CNc1nc(=O)n(C2CCCO2)cc1C (stereo not drawn)
  -10%, -6%
- CC(C)OCCCNC(=O)c1ccc2c(=O)n(Cc3ccc4c(c3)OCO4)c(=S)[nH]c2c1
  -2%, 4%
- O=C(OCc1nc2ccccc2[nH]1)C1CCCCC1
  -12%, -7%
- O=C(/C=C/c1cccc(Cl)c1)NCCN1CCOCC1
  -11%, 1%
- CN(Cc1ccco1)C(=O)c1ccc(N2CCCC2=O)cc1
  -9%, -8%
- CCOC(=O)C1=CCN(S(=O)(=O)c2ccc(C)cc2)C1c1cccs1 (stereo not drawn)
  6%, -5%
- Cc1ccc(NC(=O)c2cc(N3C(=O)C=CC3=O)ccc2N2CCOCC2)cc1
  -3%, -6%
- COc1ccc2cc(-c3cn4c(n3)sc3cc(F)ccc34)c(=O)oc2c1
  -9%, -1%

In a second layout: entries from further up.
> O=C(OCc1nc2ccccc2[nH]1)C1CCCCC1
  Vaccinia mCherry: -12%; VACV Venus inh: -7%
> O=C(/C=C/c1cccc(Cl)c1)NCCN1CCOCC1
  Vaccinia mCherry: -11%; VACV Venus inh: 1%
> CN(Cc1ccco1)C(=O)c1ccc(N2CCCC2=O)cc1
  Vaccinia mCherry: -9%; VACV Venus inh: -8%
> CCOC(=O)C1=CCN(S(=O)(=O)c2ccc(C)cc2)C1c1cccs1 (stereo not drawn)
  Vaccinia mCherry: 6%; VACV Venus inh: -5%
